Bioassay records deposited in PubChem by National Center for Advancing Translational Sciences (NCATS).
2A Renilla = lowers the Renilla signal of an FMDV 2A StopGo reporter; HEK cells with a luciferase reporter of 2A StopGo recoding; Potency, µM (doses to about 57.5 µM), inactives show top-dose signal change, negative = less light; actives 0.32% (n = 120,000); AID 1745857; active means well fitted falling curve with a large enough effect; inconclusive means small, poorly fitted or top-dose-only effect; inactive means no such curve, though single readings can be large or run the other way; note: nearly all actives have a fitted effect of over 55% in size; overnight with compound
StopGo FLuc = FMDV 2A StopGo reporter, firefly signal. HEK cells with a luciferase reporter of 2A StopGo recoding. Potency, µM (series often up to 57.5 µM), inactives show at the top dose signal change, negative = less light. actives 0.23% (n = 120,000). AID 1745856; active = well fitted falling curve with a large enough effect; inconclusive = small, poorly fitted or top-dose-only effect; inactive = no such curve, though single readings can be large or run the other way; note: nearly all actives have a fitted effect of over 60% in size; overnight with compound
Active calls of the source: *; ? = inconclusive; [ ] = remark or other dose. % is set by controls: 0 for no effect and ±100 for the full control effect; potency is the fitted concentration of half-maximal effect. These rows are one share of the data; rates above refer to the full screens.

SMILES | 2A Renilla | StopGo FLuc
CCn1c(C(=O)NCc2cccc(Br)c2)cc2oc3ccccc3c21 | ? | -12%
CONC(=O)COCc1nc2ccccc2s1 | 3% | 14%
COc1ccc(NC(=O)NCCn2nnc3cc(S(=O)(=O)N(C)C)ccc32)cc1 | -12% | -21%
O=C(NCc1ccccc1)C1Cc2ccccc2S1 (stereo not given) | 20% | 194%[activator]
O=C(NCCNC(=O)c1cc2ccccc2[nH]1)C(=O)NC1CCCC1 | -3% | 2%
COc1cc(C2c3c(-c4cc(Cl)c(C)cc4O)n[nH]c3C(=O)N2Cc2cccnc2)ccc1O (stereo not given) | 33%[activator] | 3%
CCOC(=O)CN1CCN(c2nc3c(c(=O)[nH]c(=O)n3C)n2Cc2cccc3ccccc23)CC1 | -10% | -8%
Cc1ccc(C)c(CSc2cn(CC(=O)N3CCCCCC3)c3ccccc23)c1 | -8% | -14%
Cc1nc2cc(F)ccc2cc1C(=O)NCc1ccc(C(=O)N2CCCC2)cc1 | 2.5µM* | 6.3µM*
Cc1cc(C)cc(NC(=O)CSc2nc3sc4c(c3c(=O)[nH]2)CCCC4)c1 | -10% | 1%
CC(C)c1nnc(NC(=O)c2cccc3ncccc23)s1 | 21% | 0%
CCCCC(=O)N(c1ccc2oc(C)c(C(C)=O)c2c1)S(=O)(=O)c1ccc(F)cc1C | 29% | 14%
Cc1cc(N2CCN(C(C(=O)O)c3c[nH]c4ccc(Cl)cc34)CC2)nc2ccccc12 (stereo not given) | -12% | -9%
CCOC(=O)C(C)Oc1ccc2c(-c3ccccc3)cc(=O)oc2c1C (stereo not given) | -2% | 7%
O=C(Nc1ccc(Cl)c(S(=O)(=O)N2CCCC2)c1)c1n[nH]c(=O)c2ccccc12 | 7% | -3%
CC(OC(=O)c1cc(C2CC2)nn1-c1ccccc1)C(=O)Nc1ccccc1 (stereo not given) | 2% | 10%
C=CCN(CCC(=O)NC(=O)NC)CCc1ccccc1 | -6% | 4%
O=C(NCCNC(=O)c1cc2ccccc2[nH]1)c1ccccn1 | 47%[activator] | -2%
CC(Sc1ncc(C(F)(F)F)cc1Cl)C(=O)Nc1ccccc1F (stereo not given) | -1% | 0%
COc1cccc(NC(=O)CN(C)C(c2ccccc2)c2ccccc2)c1 | ? | ?
COc1ccc(-c2c(C)oc3cc(OC(=O)C(C)C)ccc3c2=O)cc1OC | 35%[activator] | 53%[activator]
COCCn1c(COc2ccccc2-c2ccccc2)nnc1SCC(=O)c1ccccc1Cl | 0% | -12%
CCn1cc(C(=O)NCCc2ccc(C)cc2)c(=O)c2cc(S(=O)(=O)N(C)C)ccc21 | -11% | -13%
CCCCOc1ccccc1NC(=O)Cn1c(-c2cncs2)nc2ccccc21 | -5% | 5%
COc1ccccc1CNC(=O)Cc1c(C)c2ccc(OC)c(OC)c2oc1=O | 18% | 37%[activator]

Four entries from above, ordered by count of non-hydrogen atoms, high to low.
SMILES | 2A Renilla | StopGo FLuc
COc1ccccc1CNC(=O)Cc1c(C)c2ccc(OC)c(OC)c2oc1=O | 18% | 37%[activator]
COc1cccc(NC(=O)CN(C)C(c2ccccc2)c2ccccc2)c1 | ? | ?
CCOC(=O)C(C)Oc1ccc2c(-c3ccccc3)cc(=O)oc2c1C (stereo not given) | -2% | 7%
O=C(NCc1ccccc1)C1Cc2ccccc2S1 (stereo not given) | 20% | 194%[activator]

Going on with the list.
SMILES | 2A Renilla | StopGo FLuc
CCOC(=O)C(C)N1C(=O)S/C(=C/c2cn(C)c3ccccc23)C1=O (stereo not given) | -12% | 10%
CCOc1ccccc1NC(=O)C(C)Sc1nc2c(c(=O)[nH]1)CCCC2 (stereo not given) | 46%[activator] | 24%
CCOC(=O)c1c(NC(=O)Cc2coc3ccc(CC)cc23)sc2c1CCC2 | 3% | -11%
CC(C)CNc1oc(-c2ccccc2F)nc1C#N | 48%[activator] | 26%
CC(C)(C)c1nnc(NC(=O)CS(=O)(=O)Cc2ccccc2)s1 | 4% | 10%
COc1ccc(CCNCc2cccc(Cl)c2)cc1 | -5% | 8%
Cc1ccccc1C(OC(=O)c1nn(C)c(=O)c2ccccc12)C(F)(F)F (stereo not given) | 5% | -8%
CC(N)C1CC1 (stereo not given) | 4% | 0%
Cc1ccc(N2CCN(C(=O)c3c4c(nc5ccccc35)C(=O)N(C3CCCCC3)C4)CC2)c(C)c1 | 17% | -26%
COCCCNC(=O)c1cc2c(=O)n3cccc(C)c3nc2s1 | -12% | 11%
COc1ccc(NC(=O)c2c(C)oc3ccc(O)c(CN4CCN(Cc5ccccc5)CC4)c23)cc1Cl | -15% | -17%
O=C(COc1cccc(-n2cnnn2)c1)N1CCN(S(=O)(=O)c2cccc(F)c2)CC1 | -14% | -17%
CCN(CC)c1nc2ccccc2nc1C(=O)Nc1ccc(OC)cc1 | 9% | 4%
CCN(CC)S(=O)(=O)c1nnc(NC(=O)c2ccc(C(C)C)cc2)s1 | -6% | -1%
O=S(=O)(c1ccc(Br)c2ccccc12)N1CCCC1 | 34%[activator] | 7%
COc1ccc(NC(=O)CSc2nc3nc(C)c(Cc4ccccc4Cl)c(C)n3n2)cc1OC | -7% | -14%
CC(=O)Nc1ccc(C(=O)CSc2nnc3cc(C)c4ccccc4n23)cc1 | -6% | -10%
CC(SCc1ccccc1)C(=O)N(CC#N)C1CC1 (stereo not given) | 3% | 10%
Cc1c(-c2ccccc2)n(C)c2ccccc12 | 0% | 0%
COc1ccc2ccccc2c1/C=C(/C#N)c1nc2ccccc2[nH]1 | 5% | -5%
COc1cc(C2SC[C@H]3C(=O)N(c4ccccc4)C(=O)N23)cc(OC)c1OC (stereo not given in full) | -9% | -8%
O=c1[nH]c(=O)n(Cc2ccccc2)c2c1C(C(F)(F)F)(C(F)(F)F)N=C(c1ccccn1)N2 | ? | ?
CCC(Cc1ccccc1)NC(=O)c1cccc(Nc2nc3ccccc3nc2-n2nc(C)cc2C)c1 (stereo not given) | 4% | -12%
CCC1CCCCN1C(=O)C1=CC(c2ccc(C)cc2)=NS(=O)(=O)N1C (stereo not given) | 93%[activator] | 5%
COc1cccc2c1OC1=C(C(=O)CC(C)(C)C1)C2CC(=O)c1ccc(F)cc1 (stereo not given) | 27% | -8%
More compounds
SMILES | 2A Renilla | StopGo FLuc
O=C(Cc1ccc2c(c1)CCC2)NC(c1ccc(F)cc1)c1cccs1 (stereo not given) | -1% | -9%
CC(C)c1ccc(OCC(=O)NOCc2ccccc2)cc1 | 9% | 16%
COCCN1C(=O)c2n[nH]c(-c3ccco3)c2C1c1ccc(OC)c(OC)c1 (stereo not given) | 21% | 24%
CC(C)c1ccc(/C=C(/CC(=O)O)c2nc3ccccc3s2)cc1 | 27% | 0%
O=C(Cc1c[nH]c2ccccc12)N1CCN(S(=O)(=O)c2cccc(F)c2)CC1 | -2% | -11%
COc1cccc(CNC(=O)Cn2nc(C)n3c(cc4cc(C)ccc43)c2=O)c1OC | ? | -3%
N#Cc1ccc(/C=C/C(=O)c2ccc(N3CCOCC3)cc2)cc1 | 24% | 16%
Cc1ccc(C(=O)N2CCN(c3oc(C4CC4)nc3C#N)CC2)c(C)c1 | -5% | -6%
Cc1c(C(=O)Nc2ccc(Br)cc2F)oc2ccc(S(=O)(=O)N3CCCCC3)cc12 | -11% | -17%
Cc1cccc(C(=O)O)c1NC(=O)c1ccco1 | 3%[1.06 µM] | 11%
Cc1ccc(Nc2ccc(N3CCN(C(=O)c4ccc([N+](=O)[O-])cc4Cl)CC3)nn2)cc1 | -12% | 4%
CCOc1ccc(CCNC(=O)c2cc3ccccc3oc2=O)cc1OCC | -14% | 6%
CCOc1cccc2cc(-c3cn4c(n3)sc3cc(C)ccc34)c(=O)oc12 | -7% | -15%
O=C(NCCc1cccc2cccnc12)N1CCC(n2cccc2)CC1 | 14% | 85%[activator]
COCCn1c(SCc2cc(C)ccc2OC)nnc1-c1ccccc1 | 51%[activator] | 20%
COc1ccccc1C1=NS(=O)(=O)N(C)C(C(=O)Nc2ccccc2SC)=C1 | 21% | 0%
CCOC(=O)c1ccc(NC(=O)c2cn(-c3ccccc3)nc2-c2ccc(Br)cc2)cc1 | -8% | -14%
Cc1cccc(C(=O)Nc2ccc3nc(SCc4ccc(Br)cc4)sc3c2)c1 | -9% | 8%
COC(=O)CSc1nc2c(cc1C#N)CCCC2 | -3% | 85%[activator]
Cc1cc(C(=O)Cn2nc(C(=O)O)c3ccccc3c2=O)c(C)n1CCc1ccc(F)cc1 | 7% | 0%
COc1cc(/C=C/c2ccc3cccc(O)c3n2)cc(OC)c1OC | 7% | 161%[activator]
COc1cc(-c2ccccc2)sc1C(=O)N1CCS(=O)CC1 | 25% | 71%[activator]
CN(CC(=O)NCC(F)(F)F)C1CCCc2ccccc21 (stereo not given) | 12% | 7%
COc1ccc(Oc2c(C(F)(F)F)oc3c(CN4CCCC(C)C4)c(O)ccc3c2=O)cc1 (stereo not given) | -11% | -12%
COc1cc(C2CC(=O)Nc3c(C(=O)O)cn(-c4ccc(F)cc4)c32)cc(OC)c1OC (stereo not given) | -7% | 3%

Part of the list above in a different format:
compound,2A Renilla,StopGo FLuc
CC(C)c1ccc(/C=C(/CC(=O)O)c2nc3ccccc3s2)cc1,27%,0%
COc1ccccc1C1=NS(=O)(=O)N(C)C(C(=O)Nc2ccccc2SC)=C1,21%,0%
COc1cc(/C=C/c2ccc3cccc(O)c3n2)cc(OC)c1OC,7%,161%[activator]
Cc1cccc(C(=O)Nc2ccc3nc(SCc4ccc(Br)cc4)sc3c2)c1,-9%,8%
COC(=O)CSc1nc2c(cc1C#N)CCCC2,-3%,85%[activator]

(listing goes on)
SMILES | 2A Renilla | StopGo FLuc
Cc1ccc(NC(=O)C(Sc2ccc(S(=O)(=O)N3CCOCC3)cn2)c2ccccc2)cc1 (stereo not given) | 194%[activator] | 0%
COc1ccc2c(C)c(CCC(=O)NCCc3ccc(OC)c(OC)c3)c(=O)oc2c1 | -6% | -1%
COCc1nnc(NC(=O)c2ccc3c(ccn3Cc3ccccc3)c2)s1 | 12% | 94%[activator]
CC1=C(C(=O)OC(C)(C)C)C(c2ccc(Cl)cc2)NC(=O)N1 (stereo not given) | -6% | -12%
CCOCCCNCc1cccc(OC)c1 | -9% | -14%
COC(=O)c1ccc(NC(=O)c2noc3c2COc2ccc(C)cc2-3)cc1 | -7% | 8%
COc1ccc(CC(=O)NCC(c2cccs2)S(=O)(=O)c2ccc(C)cc2)cc1 (stereo not given) | 34%[activator] | 20%
COc1ccc(S(=O)(=O)N(C)C)cc1NC(=O)Cc1nn(C)c(=O)c2ccccc12 | 29% | 0%
CN(C(=O)CSc1nc2ccc(NC(=O)c3ccccc3F)cc2s1)c1ccccc1 | 4% | 7%
CCCn1cnc2c1c(=O)n(Cc1csc(C(C)C)n1)c(=O)n2C | 13% | 31%[activator]
CCOC(=O)c1ccccc1NC(=O)CSc1c(C(C)C)cnc2c1c(=O)n(C)c(=O)n2C | 26% | 38%[activator]
CCCCn1c(=N)n(CCOc2ccccc2OC)c2ccccc21 | -11% | ?
CCc1sc(C(N)=O)cc1C | 6% | -2%
Cc1ccc(OCCn2c(CN3CCOCC3)nc3ccccc32)cc1 | -18% | -11%
CC(=O)c1csc(NC(=O)c2nn(C(C)C)c(=O)c3ccccc23)n1 | 0% | 27%
COc1ccc(-n2cnc3c2NC(=O)CC3c2cc(OC)c3c(c2OC)OCO3)cc1 (stereo not given) | 8% | 10%
[N-]=[N+]=CC(=O)OC[C@H](N)C(=O)O | -8% | -5%
COc1ccc(Cc2nc3c4c(ncn3n2)Oc2cc(O)ccc2C4c2ccccc2)cc1OC (stereo not given) | ? | 0%
Cc1cccc(/C=C(/C(=O)O)c2cccs2)c1 | 15% | 17%
Cc1ccccc1CCNC(=O)c1nccnc1N | 12% | 180%[activator]
O=C(NCCCN1CCCC1=O)c1cc(=O)c2ccccc2o1 | -2% | 5%
Cc1ccc(Cn2c(-c3ccccc3)nc3ccccc32)cc1 | 26% | 43%[activator]
CC(C)(C)c1cc(C(C)(C)C)c2oc(=O)c(-c3nc4ccccc4[nH]3)cc2c1 | -11% | -18%
O=C(Cn1c(=O)c2ccccc2n(CC(=O)Nc2ccccc2F)c1=O)NCCc1ccccc1 | -9% | -6%
CCc1ccc(CNC(C)(C)CO)cc1 | -6% | -1%

Look-ups from the results shown.
COc1ccc2c(C)c(CCC(=O)NCCc3ccc(OC)c(OC)c3)c(=O)oc2c1 in StopGo FLuc is listed with -1%
O=C(NCCCN1CCCC1=O)c1cc(=O)c2ccccc2o1 in StopGo FLuc is listed with 5%
CCOCCCNCc1cccc(OC)c1 in StopGo FLuc is listed with -14%
Cc1ccc(OCCn2c(CN3CCOCC3)nc3ccccc32)cc1 in 2A Renilla is listed with -18%

Following part:
SMILES | 2A Renilla | StopGo FLuc
O=C(NC1(C(F)(F)F)N=C(c2ccccc2)N(CCc2ccccc2)C1=O)C1CC1 (stereo not given) | -14% | -21%
Cc1ccc(CNC(=O)c2cccc(CS(C)=O)c2)cc1 (stereo not given) | 3% | 4%
CCOC(=O)C(NC(=O)c1cccc(C(F)(F)F)c1)(OCc1ccccc1)C(F)(F)F (stereo not given) | 69%[activator] | 9%
COc1ccc(CNC(=O)c2ccc(N3CCCC3)c(NC(=O)NCc3ccc(F)cc3)c2)cc1 | 80%[activator] | 4%
CCOc1ccccc1NC(=O)N1CCc2c(sc(C)c2CC)C1c1ccccc1 (stereo not given) | 7% | -14%
Cc1c(Cl)cccc1NC(=O)Nc1c[nH]c(=O)[nH]c1=O | 44% | 44%
COc1ccc(C2NC(=O)N(C)C3=C2C(=O)N(c2ccccc2)C3)cc1 (stereo not given) | -13% | 2%
Cc1ccc(C(=O)NC(c2cccnc2)c2ccc(C)c(C)c2)cc1 (stereo not given) | 32%[activator] | ?
